High-throughput results as filed in PubChem BioAssay.
ID4 SMM: binders of human ID4 protein, primary screen, biochemical, small molecule microarray, single point; DNA-binding protein inhibitor ID-4 (Homo sapiens), P47928; Flag-ID4 binding, fluorescence F/B; calls only; 31,000 tested, 1.2% active; AID 624137, 2012;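 active = spot signal over background at p below 0.07 in all four prints; compounds were printed on slides so no solution concentration is given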;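 also: a binder raises fluorescence above local background on the spot; about 2 pmol printed per array spot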
Target sequence (P47928 whole entry, looked up): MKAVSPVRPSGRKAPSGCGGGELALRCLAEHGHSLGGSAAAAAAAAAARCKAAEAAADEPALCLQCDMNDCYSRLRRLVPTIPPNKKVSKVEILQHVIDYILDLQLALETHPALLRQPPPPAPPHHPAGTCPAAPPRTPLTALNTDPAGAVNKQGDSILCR
Calls only; i = inactive. Not all compounds are listed; the hit share may differ from the screen's.

canonical_smiles,ID4 SMM
CCOc1ccc(-n2nc3ccc(NC(=O)COc4ccccc4Cl)cc3n2)cc1,i
Cc1nnc(SCC(=O)c2ccc([N+](=O)[O-])cc2)s1,i
O=C(CC1C(=O)N(c2ccccc2)C(=O)N1Cc1cccs1)Nc1ccccc1 (centres undefined),i
C[C@@H]1CN([C@@H](C)CO)C(=O)c2cc(C#CC3CC3)cnc2O[C@@H]1CN(C)Cc1cccc(C(=O)O)c1,i
C[C@H]1CN([C@@H](C)CO)C(=O)c2cc(Br)cnc2O[C@@H]1CN(C)Cc1cccc(F)c1,i
O=C(COc1cccc2ccccc12)Nc1cccnc1,i
C[C@H]1CN([C@@H](C)CO)C(=O)CCCn2nncc2CO[C@@H]1CN(C)Cc1ccc(Cl)c(Cl)c1,i
O=C(CN1C(=O)c2ccccc2S1(=O)=O)Nc1cc(Cl)ccc1Oc1ccccc1,i
COCCNC(=O)C[C@@H]1C[C@H]2c3cc(NC(=O)C4CCC4)ccc3O[C@H]2[C@H](CO)O1,i
CC1(C)S[C@@H]2[C@H](NC(=O)Cc3ccccc3)C(=O)N2[C@H]1C(=O)O,i
Cc1ccc2oc(=O)n(CCc3noc(-c4cc(C)on4)n3)c2c1,i
CCCNC(=O)N[C@@H]1C=C[C@@H](CC(=O)N2CCN(C)CC2)O[C@H]1CO,i
CCn1c(SCC(=O)c2ccc(OC)cc2)nnc1-c1cc2cc(Br)ccc2o1,i
COc1ccc(-c2cc(=O)c3c(O)c(OC)c(O[C@@H]4O[C@H](CO)[C@@H](O)[C@H](O)[C@H]4O[C@@H]4O[C@@H](C)[C@H](O)[C@@H](O)[C@H]4O)cc3o2)cc1,i
COc1cc2c(cc1NC(=O)CN(C)S(=O)(=O)c1ccc(C)cc1)oc1ccccc12,i
COC(=O)c1sccc1-c1ccc(-c2ccn(C(=O)c3ccc(Cl)cc3)n2)o1,i
COc1ccccc1-c1ccc2c(c1)O[C@@H](CN(C)C)[C@H](C)CN([C@H](C)CO)S2(=O)=O,i
C[C@@H]1CN([C@@H](C)CO)C(=O)c2cc(C3=CCCC3)cnc2O[C@H]1CN(C)C,i
COc1ccccc1-c1ccc2c(c1)O[C@@H](CN(C)C(=O)Nc1cccc(F)c1)[C@@H](C)CN([C@@H](C)CO)S2(=O)=O,i
COc1cccc(C#Cc2cnc3c(c2)C(=O)N([C@H](C)CO)C[C@@H](C)[C@@H](CN(C)C)O3)c1,i
O=C(Cn1c(NCCO)nc2ccccc21)c1ccccc1,i
CCc1ccccc1NC(=O)CN(C)S(=O)(=O)c1ccc(Br)cc1,i
COC(=O)c1ccccc1NC(=O)CSc1nc2ccc(C)cc2[nH]1,i
O=C(CCCN1C(=O)c2ccccc2C1=O)Nc1ccc(Cl)cc1,i

Among those listed so far, three contain a furan ring, fused or not:
canonical_smiles,ID4 SMM
CCn1c(SCC(=O)c2ccc(OC)cc2)nnc1-c1cc2cc(Br)ccc2o1,i
COc1cc2c(cc1NC(=O)CN(C)S(=O)(=O)c1ccc(C)cc1)oc1ccccc12,i
COC(=O)c1sccc1-c1ccc(-c2ccn(C(=O)c3ccc(Cl)cc3)n2)o1,i

(continued)
canonical_smiles,ID4 SMM
COc1cc(-c2nnc(SCC(N)=O)n2C)cc(OC)c1OC,i
Cc1cc(I)ccc1NC(=O)Cn1cc([N+](=O)[O-])cn1,i
C[C@H](CO)N1C[C@H](C)[C@H](CN(C)Cc2ccccc2)Oc2ncc(C#Cc3cccnc3)cc2C1=O,i
C[C@@H]1CN([C@@H](C)CO)S(=O)(=O)c2ccc(C#Cc3ccc(F)cc3)cc2O[C@H]1CN(C)C,i
O=C(O)COc1c(-c2ccccc2)oc2ccccc2c1=O,i
C[C@H](CO)N1C[C@H](C)[C@H](CN(C)Cc2cccnc2)Oc2ncc(C#CCc3ccccc3)cc2C1=O,i
COC(=O)C[C@@H]1C=C[C@H](NC(=O)Nc2ccc(C(F)(F)F)cc2)[C@H](CO)O1,i
C[C@@H]1CN([C@H](C)CO)C(=O)c2cc(-c3cccc(C#N)c3)cnc2O[C@@H]1CN(C)Cc1ccccc1,i
Cc1ccc(NC(=O)Cn2nc([N+](=O)[O-])cc2C)cc1,i
NC(=O)c1c(NC(=O)COc2cccc(C(F)(F)F)c2)sc2c1CCC2,i
Cc1ccc(C(=O)Nc2ccc(Br)cc2)cc1S(=O)(=O)Nc1ccccn1,i
C[C@H](CO)N1C[C@H](C)[C@@H](CN(C)C(=O)C2CC2)Oc2ncc(C#Cc3cccc(F)c3)cc2C1=O,i
C[C@H](NC(=O)C[C@@H]1CC[C@H](NC(=O)c2cccnc2)[C@H](CO)O1)c1ccccc1,i
C/C=C/c1ccc2c(c1)O[C@@H](CN(C)Cc1ccccc1F)[C@H](C)CN([C@@H](C)CO)S2(=O)=O,i
COc1ccc(C)cc1S(=O)(=O)N(C)CC(=O)Nc1ccc(Br)cc1F,i
C[C@@H]1CN([C@H](C)CO)C(=O)c2cc(C#CC(C)(C)O)cnc2O[C@@H]1CN(C)Cc1cccc(F)c1,i
O=C(Nc1ccc2c(c1)OCO2)N[C@@H]1C=C[C@@H](CC(=O)N2CCN(c3ccccc3)CC2)O[C@@H]1CO,i
Cc1ccc(S(=O)(=O)N(C)CC(=O)Nc2ccc(Br)cc2F)cc1,i
C[C@]1(C(=O)NCc2ccccc2)c2ccccc2C(=O)N(Cc2ccc(OC(F)(F)F)cc2)[C@H]1c1ccc(CO)cc1,i
O=C(CN1CCOCC1)Nc1ccccc1[N+](=O)[O-],i
O=C(O)CNS(=O)(=O)c1ccc(Cl)c(Cl)c1,i
Nc1ccc(-c2nnc(SCC(=O)Nc3ccc(Br)cc3F)n2-c2ccccc2)cc1,i
Cn1cnnc1SCC(=O)Nc1ccc(Cl)cc1,i
C[C@@H]1CN([C@H](C)CO)C(=O)c2cc(C#CC3CC3)cnc2O[C@@H]1CN(C)C,i

The closing 2 records of the section above open the next one:
canonical_smiles,ID4 SMM
Cn1cnnc1SCC(=O)Nc1ccc(Cl)cc1,i
C[C@@H]1CN([C@H](C)CO)C(=O)c2cc(C#CC3CC3)cnc2O[C@@H]1CN(C)C,i
COCCn1c(SCC(=O)N2CCOCC2)nc2c(c1=O)SC(C)C2 (centres undefined),i
O=C(NCC[C@H]1CC[C@H](NC(=O)C2CCCCC2)[C@H](CO)O1)c1cc(Cl)cc(Cl)c1,i
CCn1c(SCC(=O)c2ccc(OC)cc2)nnc1-c1ccc(Cl)cc1,i
C[C@@H]1CN([C@H](C)CO)S(=O)(=O)c2ccc(-c3ccc(C#N)cc3)cc2O[C@H]1CN(C)C(=O)C1CC1,i
C[C@@H]1CN([C@H](C)CO)S(=O)(=O)c2ccc(-c3ccccc3)cc2O[C@H]1CN(C)S(=O)(=O)c1ccccc1F,i
C[C@H]1CN([C@@H](C)CO)S(=O)(=O)c2ccc(-c3ccccc3)cc2O[C@@H]1CN(C)C,i
CC(C)CC1CC(=O)NC(N)=N1 (centres undefined),i
O=C1CC2(CCCC2)CC(=O)N1CCCCNCC1COc2ccccc2O1 (centres undefined),i
Cc1ccc(NC(=O)CN(c2ccc(Cl)c(C(F)(F)F)c2)S(C)(=O)=O)cc1Cl,i
O=C(COc1ccc([N+](=O)[O-])cc1)Nc1ccc2oc(-c3ccc(F)cc3Cl)nc2c1,i
C/C=C/c1ccc2c(c1)O[C@H](CN(C)C(=O)c1ccc(F)cc1)[C@@H](C)CN([C@H](C)CO)S2(=O)=O,i
O=C(C[C@H]1C=C[C@H](NC(=O)CC2CC2)[C@H](CO)O1)NCc1ccc(Cl)cc1,i
CCCN(C)C[C@@H]1Oc2cc(C#CCOC)ccc2S(=O)(=O)N([C@@H](C)CO)C[C@@H]1C,i
Cc1ccccc1-c1cnc2c(c1)C(=O)N([C@@H](C)CO)C[C@@H](C)[C@H](CN(C)C(=O)CN(C)C)O2,i
COc1cc(NC(=O)COc2ccc(Br)cc2)ccc1NC(=O)c1cc2ccccc2o1,i
COc1ccc(CNC(=O)CCn2c(=O)c3sccc3n(Cc3cc(C)ccc3C)c2=O)cc1,i
C[C@@H]1CN([C@H](C)CO)C(=O)c2cc(NC(=O)C3CC3)ccc2O[C@H]1CN(C)CC1CCCCC1,i
C/C=C/c1cnc2c(c1)C(=O)N([C@@H](C)CO)C[C@@H](C)[C@@H](CN(C)S(=O)(=O)c1ccccc1F)O2,i
O=C(COc1ccccc1[N+](=O)[O-])Nc1ccccc1N1CCN(C(=O)c2ccccc2)CC1,i
O=C(CSc1nc2ncccc2[nH]1)Nc1ccccc1F,i
Cc1ccc(N(C(=O)COc2ccc(C(C)(C)C)cc2)C2C=CS(=O)(=O)C2)cc1 (centres undefined),i
CCOc1ccc(NC(=O)CC2NC3CCCCC3NC2=O)cc1 (centres undefined),i
C[C@H](O)C#Cc1ccc2c(c1)O[C@@H](CN(C)C(=O)Cc1ccccn1)[C@H](C)CN([C@H](C)CO)S2(=O)=O,i
CO[C@@H]1CN(C)C(=O)c2cc(NC(=O)c3ccccc3F)ccc2OC[C@@H](C)N(CC2CC2)C[C@H]1C,i

Remaining list, next part:
Structure	ID4 SMM
C[C@@H]1CN([C@@H](C)CO)S(=O)(=O)c2ccc(C#Cc3ccccc3F)cc2O[C@H]1CN(C)CC1CC1	i
CCC(C)c1c(O)nc(SCC(=O)Nc2ccccc2)[nH]c1=O (centres undefined)	i
O=C(C[C@H]1CC[C@H](NS(=O)(=O)c2ccccc2)[C@H](CO)O1)NCCN1CCCCC1	i
COc1ccc(NC(=O)CN2CCN(S(=O)(=O)c3ccc(C)cc3C)CC2)cc1	i
Cc1ccc(-c2cc(C(=O)NCCCn3ccnc3)no2)cc1	i
COc1ccc(NC(=O)CN(c2cc(Cl)c(Cl)cc2Cl)S(C)(=O)=O)c(OC)c1	i
CC1(C)CC[C@]2(C(=O)O[C@@H]3O[C@H](CO)[C@@H](O)[C@H](O)[C@H]3O)CC[C@]3(C)C(=CCC4[C@@]5(C)CC[C@H](O[C@@H]6O[C@H](C(=O)O)[C@@H](O)[C@H](O)[C@H]6O)C(C)(C)C5CC[C@]43C)C2C1 (some centres undefined)	i
CCCC#Cc1ccc2c(c1)O[C@@H](CN(C)C(=O)c1cnccn1)[C@H](C)CN([C@@H](C)CO)S2(=O)=O	i
COC(=O)c1c(NC(=S)Nc2ccc(S(=O)(=O)N3CCOCC3)cc2)sc2c1CCC(C)C2 (centres undefined)	i
C[C@H]1CN([C@@H](C)CO)C(=O)CCCn2cc(nn2)CO[C@@H]1CN(C)Cc1ccccc1C(F)(F)F	i
O=C(NCC[C@@H]1CC[C@H](NC(=O)C2CC2)[C@H](CO)O1)c1cc(Cl)cc(Cl)c1	i
C[C@H](CO)N1C[C@H](C)[C@@H](CN(C)Cc2ccc(F)cc2)Oc2ncc(C#Cc3cccnc3)cc2C1=O	i
COC(=O)N(C)C[C@H]1OCc2ccccc2-c2ccccc2C(=O)N([C@H](C)CO)C[C@H]1C	i
Cc1ccccc1-c1cnc2c(c1)C(=O)N([C@H](C)CO)C[C@H](C)[C@@H](CN(C)C(=O)CC1CC1)O2	i
O=C(CSc1n[nH]c(-c2ccco2)n1)c1c[nH]c2ccccc12	i
Cc1cc(Cl)c(S(=O)(=O)Nc2ccc(F)cc2)cc1OCC(N)=O	i
COC(=O)c1ccc(OCC(=O)Nc2cc(OC)ccc2OC)c(OC)c1	i
N#C/C(=C\c1ccc(C2=CCOc3ccccc32)s1)S(=O)(=O)c1ccccc1	i
Cc1ccc(NS(=O)(=O)c2cc(C(=O)NCC3CCCO3)ccc2Cl)cc1C (centres undefined)	i
O=C(C[C@@H]1C=C[C@H](NC(=O)C2CCOCC2)[C@@H](CO)O1)NCCc1cscn1	i
Cc1cc(I)ccc1NC(=O)CN(c1ccccc1F)S(C)(=O)=O	i
C[C@H]1CN([C@@H](C)CO)C(=O)c2cc(C#CCN(C)C)cnc2O[C@@H]1CN(C)Cc1ccccc1	i
CC(C)C#Cc1cnc2c(c1)C(=O)N([C@H](C)CO)C[C@@H](C)[C@H](CN(C)C(=O)c1ccccc1)O2	i
O=C(NCC[C@@H]1CC[C@@H](NC(=O)C2CCCCC2)[C@@H](CO)O1)c1cc(Cl)cc(Cl)c1	i
CCC(=O)NC(c1c(C)[nH]n(-c2ccccc2)c1=O)(C(F)(F)F)C(F)(F)F	i
CCOc1ccc(NC(C)=O)cc1	i
O=C(C[C@H]1CC[C@@H](NC(=O)CN2CCOCC2)[C@H](CO)O1)NCCc1ccncc1	i
CSc1ncc(Cl)c(C(=O)Nc2sc3c(c2C(=O)NCc2ccco2)CCC3)n1	i
C/C=C/c1ccc2c(c1)O[C@H](CN(C)Cc1cccc(F)c1)[C@H](C)CN([C@H](C)CO)S2(=O)=O	i
CCCC#Cc1ccc2c(c1)O[C@@H](CN(C)C(=O)c1ccccc1F)[C@@H](C)CN([C@H](C)CO)S2(=O)=O	i
CN(CC(=O)N1CCC(C(N)=O)CC1)S(=O)(=O)c1ccc(F)cc1	i
Cc1ccc(C(=O)Nc2cccc(NC(=O)COc3ccc(Br)cc3)c2)cc1	i
COc1ccc(NC(=O)CC2Sc3ccc(C(F)(F)F)cc3NC2=O)c(OC)c1 (centres undefined)	i
C[C@@H]1CN([C@H](C)CO)C(=O)c2cc(-c3ccccc3)cnc2O[C@@H]1CN(C)C(=O)C1CCCCC1	i

Ordered by molar mass (highest first): 3 of the compounds above.
Structure	ID4 SMM
CCCC#Cc1ccc2c(c1)O[C@@H](CN(C)C(=O)c1ccccc1F)[C@@H](C)CN([C@H](C)CO)S2(=O)=O	i
C[C@@H]1CN([C@H](C)CO)C(=O)c2cc(-c3ccccc3)cnc2O[C@@H]1CN(C)C(=O)C1CCCCC1	i
CN(CC(=O)N1CCC(C(N)=O)CC1)S(=O)(=O)c1ccc(F)cc1	i

Structures listed so far containing a cyano group (3):
Structure	ID4 SMM
C[C@@H]1CN([C@H](C)CO)C(=O)c2cc(-c3cccc(C#N)c3)cnc2O[C@@H]1CN(C)Cc1ccccc1	i
C[C@@H]1CN([C@H](C)CO)S(=O)(=O)c2ccc(-c3ccc(C#N)cc3)cc2O[C@H]1CN(C)C(=O)C1CC1	i
N#C/C(=C\c1ccc(C2=CCOc3ccccc32)s1)S(=O)(=O)c1ccccc1	i
